High-throughput results from PubChem.
Sa growth 42C – S. aureus growth inhibition at 42 and 30 °C, primary screen, LtaS inhibitor project, RN4220, two temperatures | AID 720641, 2013 | 170,000 tested, 0.53% active | OD600, 20 h, 42 °C; stronger effect = lower value | relative growth, % (no concentration beside the values);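 active = growth at 42 °C up to 50% and 20 or more points under that at 30 °C, or under 10% at both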;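 note: 300 nL library stock went into each well; scaled to the means of positive and negative controls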
GIV-Gai inh – inhibitors of GIV peptide binding to Galpha-i3, primary screen, biochemical, fluorescence polarization, FITC-GIV GBA peptide, rat Galphai3 | Guanine nucleotide-binding protein G(i) subunit alpha-3 (Rattus norvegicus), P08753 | 210,000 tested, 0.42% active | AID 1224905, 2016 | percent of control (FP), % (no concentration beside the values) | 90 min; stronger effect = lower value; scaled: aluminum fluoride 0%, vehicle 100%;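 active = replicate mean at 85% of control or lower, very high polarization wells dropped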;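 note: wells of about 15 µL received 100 nL stock; the first replicate is given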
Target sequence (P08753 whole entry, looked up): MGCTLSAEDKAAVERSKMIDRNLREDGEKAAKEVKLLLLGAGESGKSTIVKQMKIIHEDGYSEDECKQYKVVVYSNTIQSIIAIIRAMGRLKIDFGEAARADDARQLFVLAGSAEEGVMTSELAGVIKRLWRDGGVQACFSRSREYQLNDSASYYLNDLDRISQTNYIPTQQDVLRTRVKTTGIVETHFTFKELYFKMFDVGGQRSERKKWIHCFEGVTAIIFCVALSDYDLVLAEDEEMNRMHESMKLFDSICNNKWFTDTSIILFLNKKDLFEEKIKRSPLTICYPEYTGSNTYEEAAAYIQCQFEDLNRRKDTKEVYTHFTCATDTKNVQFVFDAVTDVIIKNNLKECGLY
HCMV NEC inh – inhibitors of HCMV UL50-UL53 interaction, biochemical, HTRF | 190,000 tested, 0.15% active | AID 1918969, 2023 | HCMV UL50-UL53 nuclear egress complex (human cytomegalovirus) | normalized percent inhibition | inhibition, % (no concentration beside the values);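 active = both replicates at 50% or more, plus weaker picks with an unusually low signal ratio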;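 note: stock transfer was 100 nL into about 20 µL; 0% = negative control wells and 100% = wells with untagged competitor protein; inactives centre near -12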
Sa growth 42C second temp – second read-out of Sa growth 42C, no call of its own (marks repeat the call); relative growth, %; measured here: growth at 30 °C;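 optical density after 20 h as mean of two plates; 100% = untreated growth and lower means inhibition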
Starred values were filed as active, the others as inactive; / = no result given; & = joins results of further samples.

SMILES	Sa growth 42C	Sa growth 42C second temp	GIV-Gai inh	HCMV NEC inh
Nc1c(C(=O)N2CCc3ccccc32)sc2nc(C(F)(F)F)c3c(c12)CCCC3	79	81	95	/
CCOc1ccc(NC2CCN(C(C)=O)CC2)cc1	76	75	110	-5
COc1ccc(-c2nc3ccc(C)cc3[nH]2)cc1OC	66	38	108	-4
Cc1ccccc1OC(C)C(=O)NC1CCCC1 (stereo unspecified)	112	103	106	-6
CC1Cc2ccccc2N1C(=O)CCS(=O)(=O)c1cccc2nonc12 (stereo unspecified)	92	90	100	-33
Cc1cccc(C)c1NC(=O)CCS(=O)(=O)c1ccc2c(c1)n(C)c(=O)c(=O)n2C	93	93	100	2
CCOC(=O)c1cccc(NC(=O)c2c(C)nn(-c3ccccc3)c2-n2cccc2)c1	97	88	106	-16
CC(C)(C)c1c[n+](-c2ccccc2)c2n1CCS2	104	97	/	-7
CCc1ccc2occ(CC(=O)Nc3c(C(=O)Nc4ccc(OC)cc4)oc4ccccc34)c2c1	115	86	103	-12
Clc1ccccc1C(c1ccccc1)(c1ccccc1)n1ccnc1	0.2*	-0.9*	108	37&-2&28&-18&1
Cc1c(C#N)c(-c2ccccc2)nc2ccccc12	113	87	/	-14
CCOc1ccc(-n2ccnc(SCC(N)=O)c2=O)cc1	102	93	99	-101
Cc1ccc(C)c(N2CCN(S(=O)(=O)c3ccc4c(c3)CC(=O)N4C)CC2)c1	93	96	99&112	-10
COC(=O)c1n[nH]n(-c2ccccc2)c1=O	105	88	102	-13
Cc1ccc(-n2nc(N3CCN(S(=O)(=O)c4cccc5nsnc45)CC3)ccc2=O)cc1	/	/	103	-82
CC(=O)Nc1ccc(CN2CCOCC2)cc1	101	80	99	-10
CCOC(=O)c1onc(-c2ccc(OC)cc2)c1N	/	/	105	-42
C#CCOc1ccc2c(c1)c(C(=O)OCC)c(C)n2CCc1ccccc1	/	/	103	-4
Cc1nnc(NC(=O)CN2C(=O)/C(=C/c3cccc(Br)c3)SC2=S)s1	/	/	105	-19
CSc1nc2ccc(NC(=O)C3CCCO3)cc2s1 (stereo unspecified)	106	83	/	-30
N#CC1C(=O)Nc2nc(N)[nH]c(=O)c2C1c1ccc(F)cc1 (stereo unspecified)	91	94	104	/
CCOC(=O)c1c(NC(=O)CSc2cn(CCNC(=O)c3ccccc3F)c3ccccc23)sc2c1CCC2	98	92	107	-11
Cc1ccc(NC(=O)N2CCC3(CC2)Oc2ccccc2C(=O)N3Cc2ccc(F)cc2)cc1	114	96	103	-14
Cc1cnc(-c2oc3ccc(Br)cc3c(=O)c2C)cn1	100	101	/	-7
CC1CCC2(CC1)NC(=O)N(NC(=O)CN1c3cccc4cccc(c34)S1(=O)=O)C2=O (stereo unspecified)	101	95	/	-44
CCc1ccccc1NC(=O)CN(Cc1ccccc1)S(=O)(=O)c1ccc2nc(C)sc2c1	95	84	100	/
CC(c1ccco1)N(C(=O)/C=C/c1cccs1)c1ccccn1 (stereo unspecified)	103	91	/	-29
CCOC(=O)c1cc2c(=O)n3ccccc3nc2n(Cc2ccco2)c1=NC(=O)c1cccc(Br)c1	105	67	116	/
O=C1/C(=C/c2ccc(Br)cc2)C=C(c2ccccc2)N1c1ccccc1O	67	60	270	/
O=C1c2cccnc2C(=O)N1Cc1ccc(S(=O)(=O)N2CCN(c3ccccc3F)CC2)cc1	/	/	101	-10
Cn1c(=O)n(C)c2cc(C(N)=O)ccc21	125	92	98	-3
CC(C)N1C(=O)CCC1C(=O)NCCc1ccccc1 (stereo unspecified)	95	90	101	-16
Cc1ccc(N(CC(=O)N2CCN(c3ccccc3)CC2)C2=NC(=O)CS2)cc1	90	86	/	-15
Cc1cccn2cc(-c3cccc(S(=O)(=O)N(C)C)c3)nc12	112	99	105	-19
Cc1ccc(NC(=O)OCC(F)(F)F)cc1Cl	79	67	/	-19
O=C(Nc1ccc2nc(SCC(=O)N3CCc4ccccc43)sc2c1)c1cccc(F)c1	90	92	99	-6
COc1cccc(C(=O)Nc2cccc(-c3cn4cccnc4n3)c2)c1OC	93	62	102	-29
CCOC(=O)N1CCC(N2Cc3cccc(C(=O)O)c3C2=O)CC1	120	93	104	/
O=C(NCC1CCCO1)C1CCCN(S(=O)(=O)c2ccc(Br)cc2)C1 (stereo unspecified)	97	99	109	11
CCCc1cc(=O)oc2cc3occ(-c4ccccc4)c3cc12	100	85	105	/
O=c1ccc(=O)n(Cc2ccccc2)[nH]1	94	86	101	-10
CC1(C)CC(=O)C2=C(C1)Nc1ccccc1N(C(=O)c1ccccc1)C2c1ccc([N+](=O)[O-])cc1 (stereo unspecified)	/	/	104	-31
NCc1ccc(-c2nc3ccccc3o2)cc1	91	98	/	-10
Oc1ccccc1N1CCN(c2nc(CN3CCOCC3)nc3sc4c(c23)CCCC4)CC1	81	87	/	-21
C=C(C)n1c(=O)[nH]c2ccccc21	93	91	99	-10
CCOC(=O)Cn1c(=O)oc2cc(S(=O)(=O)NC3CCCCC3)ccc21	89	98	100	/
CC(=O)Nc1ccc(S(=O)(=O)C(C#N)c2nc3ccccc3nc2NCCCO)cc1 (stereo unspecified)	107	90	/	-37
OC(CNC1CCCCC1)CNC1CCCCC1	86	87	96	-10
COc1ccccc1CNC(=O)c1cccc(Nc2nc3ccccc3n3nnnc23)c1	115	101	109	6
O=S(=O)(N=P(Nc1nccs1)(c1ccccc1)c1ccccc1)c1ccccc1	101	82	/	-32
COc1ccc(-c2nc(-c3ccccc3)c(-c3ccc(F)cc3)[nH]2)c(OC)c1C	79	75	102	-32
COc1ccccc1N1CCN(C(=O)CN(Cc2ccccc2)S(=O)(=O)c2ccc(F)cc2)CC1	105	94	102	4
COc1ccc(CC(=O)NCCc2csc(-c3cccc(F)c3)n2)cc1OC	85	87	102	/
CN(C(=O)c1cccc(S(=O)(=O)NCc2ccccc2)c1)C1CCCCC1	118	85	/	-20
COC(=O)c1cccc(NC(c2ccccn2)c2ccc3cccnc3c2O)c1 (stereo unspecified)	/	/	104	-59
Cc1onc(-c2ccccc2Cl)c1C(=O)N=C1N=C2C=CC=CN2Cc2ccccc21	101	95	/	-34
CCc1ccc2[nH]c(=O)c(Cc3ccccc3)c(O)c2c1	97	87	102	12
O=c1cc(N2CCN(c3ccccc3)CC2)[nH]c(=O)n1-c1ccccc1	111	102	101	6
CCOc1cc(-c2ccc(O)c(O)c2)cc(=O)c2c(C)oc(C)c12	82	74	101	-18
CC(=O)c1cccc(NC(=O)c2cc3c(s2)-c2c(C)cccc2OC3)c1	100	107	107	3

13 consecutive records out of the list so far:
SMILES	Sa growth 42C	Sa growth 42C second temp	GIV-Gai inh	HCMV NEC inh
OC(CNC1CCCCC1)CNC1CCCCC1	86	87	96	-10
COc1ccccc1CNC(=O)c1cccc(Nc2nc3ccccc3n3nnnc23)c1	115	101	109	6
O=S(=O)(N=P(Nc1nccs1)(c1ccccc1)c1ccccc1)c1ccccc1	101	82	/	-32
COc1ccc(-c2nc(-c3ccccc3)c(-c3ccc(F)cc3)[nH]2)c(OC)c1C	79	75	102	-32
COc1ccccc1N1CCN(C(=O)CN(Cc2ccccc2)S(=O)(=O)c2ccc(F)cc2)CC1	105	94	102	4
COc1ccc(CC(=O)NCCc2csc(-c3cccc(F)c3)n2)cc1OC	85	87	102	/
CN(C(=O)c1cccc(S(=O)(=O)NCc2ccccc2)c1)C1CCCCC1	118	85	/	-20
COC(=O)c1cccc(NC(c2ccccn2)c2ccc3cccnc3c2O)c1 (stereo unspecified)	/	/	104	-59
Cc1onc(-c2ccccc2Cl)c1C(=O)N=C1N=C2C=CC=CN2Cc2ccccc21	101	95	/	-34
CCc1ccc2[nH]c(=O)c(Cc3ccccc3)c(O)c2c1	97	87	102	12
O=c1cc(N2CCN(c3ccccc3)CC2)[nH]c(=O)n1-c1ccccc1	111	102	101	6
CCOc1cc(-c2ccc(O)c(O)c2)cc(=O)c2c(C)oc(C)c12	82	74	101	-18
CC(=O)c1cccc(NC(=O)c2cc3c(s2)-c2c(C)cccc2OC3)c1	100	107	107	3

(cont.)
SMILES	Sa growth 42C	Sa growth 42C second temp	GIV-Gai inh	HCMV NEC inh
CC(=O)n1c(-c2ccc(C)cc2)cc(-c2ccc(C)cc2)c(C#N)c1=O	114	91	100	-9
Cc1noc(C)c1COC(=O)CNS(=O)(=O)c1c(Cl)cccc1Cl	73	93	/	-14
COc1ccc(CCN2C(=O)C3C(C(=O)Nc4cc(C)on4)C4(C)C=CC3(O4)C2C(=O)NC2CCCCC2)cc1 (stereo unspecified)	84	76	98	-12
Cc1cccc(-n2ncc3c(N4CCCCCC4)ncnc32)c1	110	92	105	/
O=C(Nc1c(C(=O)Nc2ccc(F)cc2)oc2ccccc12)c1cc2ccccc2o1	106	87	104	-28
CC1=C(/C=C/C(C)=C/C=C/C(C)=C/CO)C(C)(C)CCC1	86	83	/	-40
CC1(C)N=C(SCC(=O)Nc2ccccc2)c2ccccc2N1	87	86	114	-19
NC(=O)c1cnn2c(C(F)(F)F)cc(-c3ccccc3)nc12	114	98	98	-68
COC(=O)c1ccccc1NC(=O)c1cc(CN2CCOCC2)on1	104	88	103	/
CSc1nsc(SC)c1NC(=O)N1CCCC1	94	89	98	-1
Cc1ccc(Cn2c(=O)n(CCc3ccccc3)c(=O)c3sc4ccccc4c32)cc1	108	89	99	-19
Cc1ccc(-c2nc3ccccc3[nH]2)cc1NC(=O)c1ccc2c(c1)OCCO2	/	/	101	13
Clc1ccc(-c2noc3ncnc(N4CCCC4)c23)cc1	92	88	102	-19
CCOc1cc(C)c(Cl)cc1S(=O)(=O)Nc1ccccn1	80	91	97	/
O=C(O)Cn1ncn2c(cc3ccccc32)c1=O	109	95	108	-1
CCCNC(=O)c1cnn(-c2cccc(C)c2)c1-n1cccc1	92	102	102	1
Cc1ccc(C)c(OCCn2c(CCNC(=O)C3CCCCC3)nc3ccccc32)c1	94	69	98	-12
C=CCn1c(SCC(=O)NCc2ccco2)nc2scc(-c3ccccc3)c2c1=O	/	/	110	-1
Cc1cc(C)c2nc3nc(C)cc(C)c3c(N)c2c1	71	36	113	-103
CNC1(C#N)CCC(C)CC1 (stereo unspecified)	90	88	/	-8
Cn1ccnc1SCC(=O)n1c2c(c3ccccc31)CCCC2	121	90	96	-1
COc1nccnc1NS(=O)(=O)c1ccc(NC(=O)CSc2nc3ccccc3s2)cc1	/	/	101	9
Cc1ccccc1OCC(=O)Nc1sc2c(c1C(=O)NCc1ccco1)CCCC2	120	101	99	5
Cc1cc(C)c2oc(C(=O)Nc3ccc(S(=O)(=O)Nc4ncccn4)cc3)cc(=O)c2c1	111	89	103	-51
CCC(Sc1nc2ncccc2o1)C(=O)NC1CCCCC1 (stereo unspecified)	105	96	109	-6
COc1ccc(NCc2cccn2-c2nnc(N3CCOCC3)s2)c(OC)c1	97	88	107	/
O=C(OCC(F)(F)F)c1ccc(COc2ccc3ccccc3c2)o1	98	94	103	/
O=C(CSc1nnc(-c2cccnc2)o1)c1ccccc1	61	35	98	-22
COc1ccc(/C(C#N)=C/N2CCOCC2)cc1OC	89	82	/	-32
COc1ccc(OCC(=O)NCC(c2ccc(OC)cc2)c2c[nH]c3ccccc23)cc1 (stereo unspecified)	/	/	105	-8
CSc1nc2ccccc2c(=O)n1CCc1ccccc1	107	85	99	-24
Cc1c(C(=O)N2CCN(c3ccccc3)CC2)sc2ncnc(N3CCN(c4ccccn4)CC3)c12	/	/	108	10
Cc1ccc2c(Sc3ccc(Cl)cc3)c(C(=O)N3CCN(C)CC3)[nH]c2c1	/	/	98	-20
CN(c1ccccc1)c1nc(N)c2c(N)nc(SCC(=O)O)cc2c1C#N	61	5	/	-11
[O-]/[N+](=C\c1ccccc1)C1CCCCC1/[N+]([O-])=C/c1ccccc1 (stereo unspecified)	106	101	98	-31
Cc1csc2ncc(C(=O)N3c4ccc(F)cc4CCC3C)c(=O)n12 (stereo unspecified)	/	/	97	-13
COC(=O)c1ccccc1N1C(=N)SCC1=O	80	82	103	-34
CCC1CCCCN1C(=O)CCN1C(=O)c2ccccc2C1=O (stereo unspecified)	/	/	102	-19
CC1(C)N=C(c2ccccc2)C(=O)N1	95	94	99	/
Cc1sc2ncn(CC(=O)Nc3ccc(Oc4ccccc4)cc3)c(=O)c2c1S(=O)(=O)N1CCCCC1	92	91	103	0
CCOC(=O)N1CCN(S(=O)(=O)N2CCCC(C(=O)NCc3cc(Br)ccc3OC)C2)CC1 (stereo unspecified)	112	89	105	/
Cc1ccc(/C=C/C(=O)OCC(=O)Nc2ccc3c(c2)CCC3)o1	72	97	/	-14
COCC(=O)N1c2nc(C(C)C)nn2C2(CCCCC2)[C@@H]2CCCC[C@@H]21	104	90	97	1
Cc1ccc(OCC(=O)OCc2cc(=O)n3nc(C4CC4)sc3n2)cc1C	81	84	127	/
